# Source: PubChem BioAssay
# VACV mCherry inh: inhibitors of vaccinia virus infection (mCherry reporter signal); Vaccinia virus mCherry reporter infection, fluorescence; about a quarter of the inactives have no number; Potency, µM (titrated, usually from 36.5 µM), for inactives: top-dose activity change, negative = inhibition, most hits filed as inhibitors; actives 0.63% (n = 310,000); active = well fitted inhibition curve with a large enough effect; inconclusive = small, poorly fitted or top-dose-only effect; inactive = no such curve, though single readings can be large or run the other way; tested in A549 cells; also: nearly all actives have a fitted effect of over 35% in size; inactives centre near -10
# VACV Venus inh: vaccinia inhibition (Venus reporter). Vaccinia virus Venus reporter expression, fluorescence. Potency, µM (highest dose often 36.5 µM), for the others: at the top dose activity change, negative = inhibition, hits mostly inhibitors. actives 0.46% (n = 330,000). AID 720580; active means well fitted inhibition curve with a large enough effect; inconclusive means small, poorly fitted or top-dose-only effect; inactive means no such curve, though single readings can be large or run the other way; tested in A549 cells; also: nearly all actives have a fitted effect of over 30% in size; inactives centre near -10
# Starred values were filed as active, the others as inactive; i = inactive; ? = inconclusive; · = no result given; & = joins results of further samples; [ ] = dose if it differs, or a comment. % is scaled to controls: 0 for no effect and ±100 for the full control effect; potency is read from the fitted curve at half-maximal effect. Rows are unselected; any-hit rate near 0.88%.
SMILES,VACV mCherry inh,VACV Venus inh
CC(NCC(O)c1ccc([N+](=O)[O-])cc1)C12CC3CC(CC(C3)C1)C2 (centres undefined),?,?
COc1ccc(Nc2cc(=O)oc3ccccc23)cc1,?,?
CCCCn1nnnc1C(c1cc2ccccc2o1)N(C)Cc1ccc(Cl)c(Cl)c1 (centres undefined),12%,-1%
CCN(CCn1cccn1)C(=O)C1CCC(=O)N(CCN2CCOCC2)C1 (centres undefined),-12%,-10%
Cc1cc(C)n(-c2nc3c(c(=O)[nH]c(=O)n3C)n2CC(C)C)n1,·,-2%
Cc1nn(-c2ccc(N3CCOCC3)nn2)c(C)c1CCC(=O)N1CCN(C)CC1,-14%,-4%
CCCC1=C(C(=O)OCC)C(c2cc(Cl)cc(OC)c2OCC(=O)OCC)NC(=O)N1 (centres undefined),i,-12%
Nc1ccc(Nc2nc3ccccc3[nH]2)cc1,-8%,-6%
Cc1ccccc1/C=c1\s/c(=C\C(=O)C(C)(C)C)[nH]c1=O,·,?
Cc1ccccc1OCCOC(=O)c1nc2nccc(C)n2n1,6%,8%
CCOC(=O)c1c(C)n(-c2ccccc2)c2ccc(OC(=O)c3ccccc3Cl)cc12,-1%,12%
CCOC(=O)c1c(SCC(=O)Nc2cccc(C)c2C)nc(=O)[nH]c1C,-12%,-5%
Cc1ccc(Nc2ncnc3ccccc23)cc1,-14%,-8%
CN(C)c1ccc(/C=C2\C=Cc3ccccc32)cc1F,-9%,8%
COc1ccc(Cl)cc1NC(=O)CN1C(=O)CSc2ccc(S(=O)(=O)N3CCCC3)cc21,-2%,-1%
NNC(=O)Cn1cnc2ccccc21,-16%,-14%
CCn1ncc(C(=O)Nc2cc(C)on2)c1C,-14%,-5%
O=C(NNC(=O)c1ccc2ccccc2c1O)c1cccs1,-20%,-11%
COc1ccc(OC(=O)CSc2nnc(-c3ccc(F)cc3)o2)cc1,1%,8%
CCc1cccc(C)c1NC(=O)Cn1cc2c(n1)CCCCC2,-1%,-7%
Cc1ccc(CNS(=O)(=O)c2ccc3c(c2)CCN3C(=O)CCCC(=O)O)cc1,i,-8%
O=C(NCCO)c1ccc(-c2ccc3nncn3c2)cc1,2%,-1%
C=CCNc1sc(C(=O)C2CC2)c(N)c1C#N,·,?
NC(=O)c1cc([N+](=O)[O-])ccc1NCc1cnccn1,i,-12%
CCC(C)C12CN3CCN(CC(C)(C3)C1=O)C2 (centres undefined),·,-28%

# In the list so far, these have an NH in an aromatic ring.
SMILES,VACV mCherry inh,VACV Venus inh
Cc1cc(C)n(-c2nc3c(c(=O)[nH]c(=O)n3C)n2CC(C)C)n1,·,-2%
Nc1ccc(Nc2nc3ccccc3[nH]2)cc1,-8%,-6%
Cc1ccccc1/C=c1\s/c(=C\C(=O)C(C)(C)C)[nH]c1=O,·,?
CCOC(=O)c1c(SCC(=O)Nc2cccc(C)c2C)nc(=O)[nH]c1C,-12%,-5%

# Further entries
SMILES,VACV mCherry inh,VACV Venus inh
O=C(O)c1cccc(N2C(=O)C3CC=C(Cl)CC3C2=O)c1 (centres undefined),-5%,-1%
Cc1csc(NC(=O)CSc2nnc(-c3ccncc3)o2)n1,·,?
O=C(CCNC(=O)c1ccco1)NCc1ccc(C(=O)O)cc1,-14%,-9%
CCn1c(C)nc2cc(OC)ccc21,-22%,4%
CP(C)(=O)CCC(=O)O,·,-17%
Cc1c(C(=O)NCCCN2CCCC2=O)oc2c(Cl)cccc12,-6%,-6%
COc1cc(NC(N)=S)c(OC)cc1Cl,-12%,-1%
CC(=O)c1c(C)[nH]c(C(=O)Nc2cccc(C#N)c2)c1C,i,-16%
O=C(CSc1ccccn1)Nc1cccc([N+](=O)[O-])c1,-15%,-20%
O=C(NCCN1C(=O)S/C(=C/c2ccccc2)C1=O)C1CCCN1C(=O)c1cccs1 (centres undefined),-14%,-5%
Cc1ccccc1-c1nc(CS(=O)CC(=O)NCCc2ccc(Cl)cc2)c(C)o1 (centres undefined),1%,-3%
C(=N/n1c2ccccc2c2ccccc21)/c1ccco1,·,?
CN(C)CCCN(C(=O)c1ccc(S(=O)(=O)N(C)C2CCCCC2)cc1)c1nc2ccc(Br)cc2s1,-3%,-16%
Cc1nn(Cc2c(Cl)cccc2Cl)c(C)c1NC(=O)CCCn1nc([N+](=O)[O-])c(Cl)c1C,i,-19%
O=Nc1onc(-c2ccc([N+](=O)[O-])cc2)c1NO,-29%,-11%
CCCC(=O)Nc1cc(C)c(NC(=O)c2cccs2)cn1,-1%,-3%
CN(C)CCCNC(=O)C[C@H]1C[C@H](C(=O)N2CCOCC2)[C@@]2(CCC3CCCC3)c3[nH]c4cc(-c5ccco5)ccc4c3CCN2C1=O,?,13µM*
CC1(C(=O)NCc2cccc3ccccc23)CCN1Cc1ccc(-c2ccccc2)o1 (centres undefined),i,1%
O=C1CSC(c2cccnc2)N1Cc1ccc(Cl)cc1 (centres undefined),i,-7%
CN(CC(=O)Nc1c(Cl)cccc1Cl)C(=O)CNC(=O)C1CCCCC1,-2%,-11%
CCN1C(=O)[C@H]2[C@@H](c3ccc(-c4cccc(Cl)c4)c(OC)c3)N[C@@](Cc3ccccc3)(C(=O)OC)[C@H]2C1=O,i,?
Cc1ccc(C(=O)N/C(=C\c2cn(S(=O)(=O)N(C)C)c3ccccc23)C(=O)NCCN2CCOCC2)cc1,i[7.34 µM],21%[7.34 µM]
CCC(=O)c1ccc(OCC(=O)Nc2cc(S(=O)(=O)N3CCCCC3)ccc2N2CCN(CC)CC2)cc1,-8%,?
CCC1CCCCN1C(=S)Nc1ccc(OC(F)F)cc1 (centres undefined),-18%,-14%
c1ccc(N2CCN(c3nnnn3-c3ccccc3)CC2)cc1,·,-20%

# (list continues)
SMILES,VACV mCherry inh,VACV Venus inh
O=C(O)CC/C(=N\NC(=O)CNC(=O)c1cccc(Cl)c1)c1ccccc1,-17%,-12%
CCCC(=NCCc1c(C)[nH]c2ccccc12)C1=C(O)CC(c2ccccc2)CC1=O (centres undefined),?,?
COc1ccc(-n2nnc3c(=O)n(CC(=O)N4CCC(C)CC4)cnc32)cc1,0%,-8%
COCCn1c(SCC(=O)N(C)c2c(N)n(Cc3ccccc3)c(=O)[nH]c2=O)nnc1-c1cccc(C)c1,-16%,-4%
NC[C@H](O)c1ccc(O)c(O)c1,-14%,-4%&-13%
CCOC(=O)N1CCC(NC(=O)c2ccc3c(c2)N(Cc2ccc(Cl)cc2)C(=O)c2ccccc2S3(=O)=O)CC1,-28%,?
CC1CCCC(NC(=O)c2cccc(S(=O)(=O)N3CCOCC3)c2)C1C (centres undefined),-19%,-12%
COC1OC2COC(c3ccccc3)OC2C(O)C1NC(=O)c1ccccc1 (centres undefined),-15%,-11%
COc1ccccc1Cc1c(-c2ccc(C#N)cc2)nc2c3ccccc3ccn12,-22%,-8%
Cc1cccc(/C=N/NC(=O)Cn2nccc2C)n1,-9%,-5%
CC(C)(C)c1ccc(C(=O)N2CCN(C(=O)c3cccs3)CC2)cc1,-30%,15%
CC1(C(=O)NCc2ccc(C(F)(F)F)cc2)CCN1Cc1ccc(-c2ccccc2)o1 (centres undefined),?,3%
FC(F)(F)c1nnc2n1N=C(c1cccs1)CS2,-19%,-11%
Cc1csc(SCC(=O)Nc2ccccn2)n1,·,-14%
Cc1ccc(CCNC(=O)C2CCCN(S(=O)(=O)c3cnc[nH]3)C2)cc1 (centres undefined),i,-15%
Cc1cccn2c(=O)c(C(=O)NCCc3ccc(Cl)cc3)cnc12,-1%,-11%
N#CC(C#N)=C(N)/C(C#N)=C/c1ccc2[nH]ccc2c1,-4%[60.7 µM],-8%[60.7 µM]
C=C(C)C(=O)O[C@H]1C/C(C)=C\C(=O)/C=C(\C)[C@H](O)[C@@H]2OC(=O)C(=C)[C@@H]21,?,10µM*
CCc1ccc(Nc2ncnc3c2cnn3-c2cc(Cl)ccc2C)cc1,-14%,-3%
CCN1CCN(c2ccc(S(=O)(=O)N3CCCCC3)cc2NC(=O)/C=C/c2cccc(OC)c2OC)CC1,-19%,?
C/C(=C\C(=O)Nc1cscc1C)C(=O)O,-20%[7.34 µM],-5%[7.34 µM]
CN1CCN(C(=O)C2CCN(S(=O)(=O)c3cnc[nH]3)CC2)CC1,i,-8%
C=CCN(CC=C)C(=O)C1c2ccccc2Oc2ccccc21,-3%,-9%
CCOc1ccc(S(=O)(=O)NCc2cccn2Cc2cccc(C)c2)cc1,-16%,-6%
Cn1c(SCc2ccccc2Cl)nc(C(F)(F)F)cc1=O,-11%,-7%

# A draw from above in order of formula weight, descending.
SMILES,VACV mCherry inh,VACV Venus inh
COCCn1c(SCC(=O)N(C)c2c(N)n(Cc3ccccc3)c(=O)[nH]c2=O)nnc1-c1cccc(C)c1,-16%,-4%
O=C(CCNC(=O)c1ccco1)NCc1ccc(C(=O)O)cc1,-14%,-9%
COc1cc(NC(N)=S)c(OC)cc1Cl,-12%,-1%

# Later entries
SMILES,VACV mCherry inh,VACV Venus inh
COc1ccc2c3c(c(=O)oc2c1OCC(=O)C(C)(C)C)CCCC3,·,?
Cc1cccc2c1CC(C)(C)N=C2C1=C(O)CC(C)(C)CC1=O,·,-17%
O=C1c2ccccc2C(=O)N1c1n[nH]c(CCc2ccccc2)n1,-16%,-11%
CCc1ccccc1NC(=S)N1CCC(NC(=O)c2ccc(OC)cc2)CC1,-4%,-6%
Cc1nc2sc3c(c2c(=N)n1N)CCCC3,?,-6%
O=C(N/C(=C\c1ccco1)C(=O)N1CCCC1CO)c1ccccc1 (centres undefined),-5%,23%
Cc1nccn1CCC(=O)Nc1ccc(Cl)cc1,-6%,17%
CN1OC[C@@H]2CN(C(=O)CCc3ccccc3)[C@H](c3cccc(-c4ccc(C#N)cc4)c3)C[C@@H]21,i,-9%
Cc1ccc(C)n1-c1ccc(N(C)C)cc1,i,-10%
COc1cc(C(=O)Oc2cccc(/C=N/NC(=O)c3cc(C)[nH]n3)c2)cc(OC)c1OC,-20%,-2%
O=C(O)c1cccc(C(=O)c2cccc(C(=O)O)c2)c1,-1%,-4%
CCC(C(=O)N1CCN(c2ccccc2OC)CC1)c1ccccc1 (centres undefined),-18%,-26%
CCC(=O)N1CCC1(C)C(=O)Nc1ccc2nc(C)ccc2c1 (centres undefined),28%,-7%
CCCCCCn1c(O)c(/C=C2\C=NN=C2c2ccccc2)sc1=S,8%,-16%
O=C(CC1C(=O)NCCN1CC1CCCCC1)NCc1ccc(F)cc1F (centres undefined),-12%,-4%
O=C(Nc1cccc2ccccc12)NC1Cc2ccccc2C1,-4%,1%
CCCC[C@@H]1Cc2[nH][nH]c(=O)c2[C@@H](c2ccc(Cl)cc2)O1,27%,-14%
Cc1ccc(S(=O)(=O)N2CCN(Cc3ccc4c(c3)OCO4)CC2)cc1,-8%,2%
N#Cc1ccc(NC(=O)CN2CCN(C(=O)c3cccs3)CC2)cc1Cl,-15%,-14%
CS(=O)(=O)c1nsc2nc(=O)c(/C=C3\C=Nc4ccccc43)c(N)n12,i,-8%
CC1(C)C=C(c2ccc(O)cc2)CC(C)(C)N1,-12%,-8%
COc1cccc(-c2cc3c(c(OC)c2)OCCN(Cc2ccccc2O)C3)n1,i,-9%
CC(C)Cn1cc(Cl)c(=O)n(CC(C)C)c1=O,i,-8%
Cn1c(SCc2ccc3c(c2)OCO3)nnc1-c1ccccc1,·,-15%
CC1(C(=O)O)CCCN1C(=O)c1cc2ccccc2s1 (centres undefined),3%,-7%

# Further records follow:
SMILES,VACV mCherry inh,VACV Venus inh
COc1cccc(NC(=O)CSCn2nnc3c(=O)[nH]c(Cc4ccc(F)cc4)nc32)c1,-3%,2%
COC(=O)c1ccc(NC(=O)CCc2c(C)nn(-c3ccc(N4CCCCC4)nn3)c2C)cc1,-7%,-6%
CC(c1nc2ccccc2[nH]1)N(C(=O)C1=NNC(=O)CC1)c1ccccc1 (centres undefined),6%,0%
S=C(NCCCN1CCOCC1)Nc1ccc(Nc2ccccc2)cc1,-7%,-6%
COc1ccc(C(=O)NCc2nnc(SCC(=O)N3CCOCC3)o2)cc1,i,-3%
O=C(CNC(=O)c1ccccc1F)NCc1cccnc1,i,0%
Cc1ccc2c(c1)C(c1ccccc1)N(C(=O)c1ccccc1)CC(=O)N2 (centres undefined),i,-14%
COc1ccc(Br)cc1CN(C)CC(=O)Nc1c(Cl)cccc1Cl,-14%,-12%
C[n+]1cccc(C2C(C#N)=C(N)Oc3c2ccc2ccccc32)c1 (centres undefined),i[7.34 µM],-3%[7.34 µM]
COC(=O)C1=C(c2cccc(OCc3ccccc3)c2)C[C@@H]2CC[C@H]1N2C(=O)NCc1ccc(C(F)(F)F)cc1,-8%,?
CC(=O)Oc1ccc(-c2cccc(C(=O)N3CCCCC3)c2)cc1,i,-6%
CCC(=O)C1=C(c2ccc(C)cc2)N(C(=O)CC)n2c(nnc2C2CCCCC2)S1,?,-27%
Nc1nc(CSC(=S)N2CCN(c3ccccc3)CC2)nc(Nc2ccc(F)cc2)n1,?,-24%
COc1ccc2c(CNCCc3cccs3)c(C(=O)O)n(Cc3cccc(F)c3)c2c1,-10%,-3%
COc1cc([C@@H]2CC=C(C(=O)O)[C@H](c3ccc(C)cc3)N2S(=O)(=O)c2ccc(C)cc2)cc(OC)c1OC,i,-16%
Cc1occc1-c1nnc(SCC(=O)Nc2nccs2)n1CCc1ccccc1,-24%,-21%

# Quoted at random: five entries already listed
SMILES,VACV mCherry inh,VACV Venus inh
CC(c1nc2ccccc2[nH]1)N(C(=O)C1=NNC(=O)CC1)c1ccccc1 (centres undefined),6%,0%
CCOC(=O)N1CCC(NC(=O)c2ccc3c(c2)N(Cc2ccc(Cl)cc2)C(=O)c2ccccc2S3(=O)=O)CC1,-28%,?
O=C(CSc1ccccn1)Nc1cccc([N+](=O)[O-])c1,-15%,-20%
N#Cc1ccc(NC(=O)CN2CCN(C(=O)c3cccs3)CC2)cc1Cl,-15%,-14%
C(=N/n1c2ccccc2c2ccccc21)/c1ccco1,·,?
